# Lassa entry inh: Lassa virus entry inhibition; Lassa virus pseudotype entry inhibition, cell reporter; control for the full effect not named in the record; Potency, µM (series often up to 37.9 µM), inactives show at the top dose activity change, negative = inhibition, most hits filed as inhibitors; 300,000 tested, 1.2% active; active means well fitted inhibition curve with a large enough effect; inconclusive means small, poorly fitted or top-dose-only effect, or effect the other way; inactive means flat fitted curve, though single readings scatter; tested in HEK293 cells; also: % is scaled to controls: 0 for no effect and ±100 for the full control effect; nearly all actives have a fitted effect of over 50% in size; luciferase read-out
# Cruzain noTriton: blocks cruzain activity in detergent-free assay | P25779 | purified cruzain, Z-FR-AMC fluorescence, no detergent | Potency, µM, for the others: max response, negative = inhibition, most hits filed as inhibitors | 200,000 tested, 2.3% active;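 also: plate controls were enzyme without inhibitor for no effect and buffer without enzyme for full effect; nearly all actives have a fitted effect of over 40% in size; top concentration of the series not given in the record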
# Target sequence (P25779 123-467 limits assumed): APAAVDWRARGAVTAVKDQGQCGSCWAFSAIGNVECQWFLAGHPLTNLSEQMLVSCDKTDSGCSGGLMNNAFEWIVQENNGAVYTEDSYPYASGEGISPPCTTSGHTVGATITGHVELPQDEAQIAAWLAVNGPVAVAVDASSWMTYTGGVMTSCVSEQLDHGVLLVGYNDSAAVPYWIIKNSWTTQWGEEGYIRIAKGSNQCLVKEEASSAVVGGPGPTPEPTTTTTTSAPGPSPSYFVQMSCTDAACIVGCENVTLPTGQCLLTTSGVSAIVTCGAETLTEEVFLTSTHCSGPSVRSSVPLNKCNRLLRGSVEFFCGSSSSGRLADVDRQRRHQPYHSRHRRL
#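 Detergent-free condition (0.00005% Triton X-100) in acetate buffer pH 5.5 with DTT. 1.5 nM enzyme and compound were pre-mixed 15 min, then 2 uM Z-FR-AMC substrate added; reaction progress from fluorescence change between first and third reads (60 s).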
# SARS PLpro yeast: inhibitors of SARS-CoV papain-like protease in yeast; Potency, µM (highest dose often 32.9 µM), inactives show top-dose activity, positive = growth rescue; 330,000 tested, 0.19% active; S. cerevisiae expressing SARS-CoV PLpro, growth rescue; control for the full effect not named in the record; active means well fitted rising curve with a large enough effect; inconclusive means small, poorly fitted or top-dose-only effect; inactive means no such curve, though single readings can be large or run the other way; also: 0% is about no effect; nearly all actives have a fitted effect of over 55% in size; growth read by luminescence after 48 h
# NS1 inh: influenza NS1 inhibition. Potency, µM (highest dose often 46.1 µM), for inactives: at the highest dose activity, positive = more growth. S. cerevisiae slowed by influenza A NS1, growth recovery by OD600. 270,000 tested, 0.4% active; active means well fitted rising curve with a large enough effect; inconclusive means small, poorly fitted or top-dose-only effect; inactive means no such curve, though single readings can be large or run the other way; also: nearly all actives have a fitted effect of over 50% in size
#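 Compounds were scored for reversing the slow growth caused by influenza A NS1 in S. cerevisiae, measured by optical density at 600 nm. Assay medium contained 2% galactose at pH 6.0; NS1-free yeast of the same strain were the positive control.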
# StopGo reporter: lowers the luciferase signal of an FMDV 2A StopGo reporter | human cells with a luciferase reporter of 2A StopGo recoding; control for the full effect not named in the record | Potency, µM (series often up to 57.9 µM), for inactives: top-dose signal change, negative = less light | 410,000 tested, 1.2% active; active = well fitted falling curve with a large enough effect; inconclusive = small, poorly fitted or top-dose-only effect; inactive = no such curve, though single readings can be large or run the other way; tested in HEK293T cells; also: % is scaled to controls: 0 for no effect and ±100 for the full control effect; nearly all actives have a fitted effect of over 45% in size; luciferase light after 4 h
# Marburg entry inh: inhibitors of Marburg virus binding or cell entry. Marburg virus pseudotyped entry inhibition, cell reporter; control for the full effect not named in the record; about a third of the inactives were read at about 46 µM. Potency, µM (titrated, usually from 37.8 µM), inactives show at the top dose activity change, negative = inhibition, hits mostly inhibitors. 300,000 tested, 1.8% active. AID 540276; active = well fitted inhibition curve with a large enough effect; inconclusive = small, poorly fitted or top-dose-only effect, or effect the other way; inactive = flat fitted curve, though single readings scatter; tested in HEK293 cells; about a fifth of its hits are not listed in these tables; also: % is scaled to controls: 0 for no effect and ±100 for the full control effect; luciferase read-out
# RE007 growth inh: less growth of the S. pombe RE007 Vpr strain. S. pombe RE007 Vpr strain, BacTiter-Glo ATP luminescence, 24 h; control for the full effect not named in the record. Potency, µM (series often up to 92.2 µM), without a hit: at the top dose activity change, negative = less growth. 360,000 tested, 0.21% active; active = well fitted falling curve with a large enough effect; inconclusive = small, poorly fitted or top-dose-only effect; inactive = no such curve, though single readings can be large or run the other way;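 also: % is scaled to controls: 0 for no effect and ±100 for the full control effect; nearly all actives have a fitted effect of over 50% in size; the assay follows cell death caused by Vpr and the record does not say whether a fall means rescue or toxicity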
#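 Fission yeast strain RE007, carrying one chromosomally integrated HIV-1 vpr copy, was seeded at OD 0.01 in PMG+AL medium with 23 nL pinned compound. After 24 h at 30 °C and 99% humidity, viability was read by BacTiter-Glo luminescence.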
# Cruzain Triton: cruzain (T. cruzi) inhibition with detergent; P25779; purified cruzain, Z-FR-AMC fluorescence, 0.01% Triton; Potency, µM, inactives show max response, negative = inhibition, usual class: inhibitors; 200,000 tested, 0.43% active;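 also: plate controls were neutral wells for no effect and buffer without enzyme for full effect; nearly all actives have a fitted effect of over 40% in size; top concentration of the series not given in the record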
#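 15 min RT preincubation of 1.5 nM cruzain with compound, then 2 uM Z-FR-AMC added; kinetic AMC fluorescence, 60 s delta. Triton X-100 0.01%, pH 5.5.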
# * hit, by the source's call; u = inconclusive; x = no result given; & = joins results of further samples; [ ] = another dose, or the depositor's remark. Unless noted, calls follow the shape of the dose curve; as a rule, active = well fitted curve in the direction sought with a large enough effect; inconclusive = small, poorly fitted or top-dose-only effect, or another doubt; inactive = no such curve, though single readings can be large; an effect the other way counts as inactive or inconclusive. Potency is read from the fitted curve at half-maximal effect.
# Key to letters: A = Lassa entry inh; B = Cruzain noTriton; C = SARS PLpro yeast; D = NS1 inh; E = StopGo reporter; F = Marburg entry inh; G = RE007 growth inh; H = Cruzain Triton
COn1c(SC2CCCCC2)nc2ccccc2c1=O
  A: -5%	B: -7%	C: -10%	D: -37%	E: 38%[activator]	F: -4%&-4%	G: -3%	H: -3.2%

COc1ccc(C)cc1NC(=O)N1CCN(S(=O)(=O)c2ccc3c(ccn3C)c2)CC1
  A: 13%[46.1 µM]	B: -9%	C: x	D: x	E: -17%	F: x	G: x	H: -4.8%

COCCn1c(SCC(=O)NCc2ccccc2)nc2ccccc21
  A: u	B: x	C: 9%	D: -12%	E: 24%	F: -15%[46.1 µM]	G: 29%	H: x

CCOc1ccc(CCNC(=O)COC(=O)/C=C/c2ccc(OC(F)F)c(OC)c2)cc1OCC
  A: -17%	B: x	C: -2%	D: x	E: -6%	F: -3%[46.1 µM]	G: -2%	H: x

O=C(C1=C(O)C(=O)N(c2ccccc2)C1c1ccc([N+](=O)[O-])cc1)c1cccs1 (stereo not given)
  A: -2%	B: x	C: 2%	D: x	E: -25%	F: -21%	G: 7%	H: x

COc1cccc(OCC(=O)N(C)Cc2nc(-c3ccccc3)no2)c1
  A: 3%[46.1 µM]	B: x	C: -2%	D: -7%	E: 8%	F: -12%[46.1 µM]	G: -16%	H: x

CN1CCN(C(=O)Nc2cccc(-c3ccccc3)c2)CC1
  A: 6%	B: x	C: 1%	D: u	E: -13%	F: -10%[46.1 µM]	G: 9%	H: x

CCOC(=O)CSc1nc2cc(OCC)ccc2cc1C#N
  A: u	B: -16%	C: 0%	D: -3%	E: 58%[activator]	F: u	G: -5%[3.69 µM]	H: -9.0%

O=C(CNC(=O)c1ccc(-c2ccccc2)cc1)OCc1ccc(Br)cc1
  A: 14%	B: u	C: 9%	D: 1%	E: 47%[activator]	F: -21%[46.1 µM]	G: -13%	H: -0.1%

COc1ccc(Cn2c(SCc3ccc(C(=O)NCc4ccccc4F)cc3)nc3cccnc32)cc1
  A: x	B: -29%	C: x	D: x	E: 0%	F: 7%[46.1 µM]	G: x	H: -3.9%

COc1cc(-n2nnnc2SC)c(OC)cc1Cl
  A: x	B: x	C: -1%	D: 2%	E: 2%	F: x	G: 18%	H: x

CC(Cc1ccccc1)N1C(=O)c2cccc([N+](=O)[O-])c2C1=O (stereo not given)
  A: 14%[46.1 µM]	B: x	C: 1%	D: 0%	E: 2%	F: 3%[46.1 µM]	G: 2%	H: x

CC(NC(=O)Cn1nc(C(=O)O)c2ccccc2c1=O)C12CC3CC(CC(C3)C1)C2 (stereo not given)
  A: 2%[46.1 µM]	B: x	C: -1%	D: -41%	E: -13%	F: 8%[46.1 µM]	G: 7%	H: x

Cc1nc(Nc2c(Cl)cccc2Cl)sc1C(=O)Nc1ccccc1
  A: -28%	B: -3%	C: u	D: u	E: -8%	F: u	G: 0%	H: -2.7%

CCCc1nnc(SCC(=O)Nc2ccc(Cl)cc2Cl)o1
  A: u	B: x	C: -9%	D: 3%	E: -10%	F: 16%[46.1 µM]	G: -13%	H: x

# The closing 2 compounds of the section before come first, to join the parts.
# Key to letters: A = Lassa entry inh; B = Cruzain noTriton; C = SARS PLpro yeast; D = NS1 inh; E = StopGo reporter; F = Marburg entry inh; G = RE007 growth inh; H = Cruzain Triton
Cc1nc(Nc2c(Cl)cccc2Cl)sc1C(=O)Nc1ccccc1
  A: -28%	B: -3%	C: u	D: u	E: -8%	F: u	G: 0%	H: -2.7%

CCCc1nnc(SCC(=O)Nc2ccc(Cl)cc2Cl)o1
  A: u	B: x	C: -9%	D: 3%	E: -10%	F: 16%[46.1 µM]	G: -13%	H: x

Cc1ccc(OCCSc2ncccn2)c(C)c1
  A: 10µM*	B: x	C: -2%	D: 6%	E: 7%	F: u	G: -9%	H: x

O=C(CSc1nnc(-c2ccc(S(=O)(=O)N3CCCC3)cc2)o1)NCc1ccccc1
  A: -7%	B: u	C: 8%	D: 2%	E: 21%	F: u	G: 15%	H: 9.7%

Cc1sc2nc(CN3CCOCC3)nc(N3CCOCC3)c2c1C
  A: -2%	B: -2%	C: -3%	D: 4%	E: -10%	F: 0%	G: -16%	H: -3.1%

CC(C)N=C1SCC(C)(/C=N/O)S1 (stereo not given)
  A: 6%	B: 8%	C: u	D: u	E: -10%	F: u	G: 1%	H: -0.6%

CC(C)Cn1cnc2c(=O)oc3ccccc3c21
  A: u	B: -1%	C: -1%	D: 2%	E: 7%	F: -5%	G: 38%	H: 0.2%

Cc1ccccc1N(CC(=O)NC(C)(C)C)C(=O)CCC(=O)Nc1nccs1
  A: x	B: x	C: -1%	D: 18%	E: 2%	F: x	G: 6%	H: x

COc1ccc(CNC(=O)CN(C(=O)CCC(=O)Nc2nccs2)c2ccc(C)cc2)cc1
  A: -9%	B: x	C: 2%	D: 13%	E: 5%	F: -4%	G: 1%	H: x

Cc1nnc(SCc2ccc3c(c2)OCO3)s1
  A: 17%	B: -8%	C: -5%	D: -10%	E: 50%[activator]	F: 18%	G: 11%	H: 6.2%

COc1ccccc1/C=C1\SC(=S)N(CCC(=O)N2CCCCC2CCO)C1=O (stereo not given)
  A: -12%[46.1 µM]	B: x	C: 2%	D: 4%	E: 0%	F: u	G: 14%	H: x

O=C(COc1ccc2c3c(c(=O)oc2c1)CCC3)NCc1ccncc1
  A: x	B: x	C: -3%	D: 6%	E: -7%	F: x	G: 5%	H: x

CN(C)S(=O)(=O)NC(c1ccccc1)c1ccccc1
  A: -6%	B: 0%	C: -6%	D: -7%	E: -9%	F: -5%	G: -8%	H: -2.7%

CCOc1ccc2c(c1)n(CO)c(=S)n2CO
  A: -1%	B: -3%	C: 3%	D: -3%	E: 8%	F: 20%	G: -15%	H: 8.2%

CNC(=O)C1=C(C)n2c(nc3ccccc32)NC1c1ccc(OC)cc1 (stereo not given)
  A: 7%	B: -24%	C: 4%	D: 9%	E: 30%	F: -20%	G: -21%	H: -16%

CSc1ncc(Cl)c(C(=O)Nc2c(C(=O)c3ccc(C)c(F)c3)oc3ccccc23)n1
  A: 20%[46.1 µM]	B: 6%	C: x	D: x	E: -10%	F: -2%[46.1 µM]	G: x	H: -1.8%

S=C(NCc1cccnc1)Nc1cccc(Cl)c1
  A: 15%	B: -1%	C: 3%	D: -13%	E: 41%[activator]	F: 10%	G: -5%	H: -1.0%

O=C(CSCc1ccc(Cl)cc1)Nc1ccc(S(=O)(=O)N2CCOCC2)cc1
  A: -16%	B: 16%	C: 14%	D: -1%	E: -19%	F: 5%	G: 0%	H: -4.6%

COc1ccc(CC(=O)Nc2ccc3c(c2)CCC3)cc1
  A: 0%	B: 10%	C: -23%	D: 5%	E: 40%[activator]	F: 15%	G: x	H: -7.0%

Nc1nc(NCc2ccccc2)nc(NCc2ccccc2)c1[N+](=O)[O-]
  A: 5%	B: u	C: 13%	D: 0%	E: -26%	F: u	G: -29%	H: -0.3%

Cc1c(N=Cc2c(O)n(Cc3ccc(F)cc3)c(=O)[nH]c2=O)c(=O)n(-c2ccccc2)n1C
  A: -9%	B: 11%	C: 11%	D: 1%	E: -27%	F: u	G: 4%[3.69 µM]	H: 0.3%

O=C(CCC1CCCN(C(=O)Cc2ccc(F)cc2)C1)N1CCN(c2ccccn2)CC1 (stereo not given)
  A: -25%	B: x	C: 1%	D: -7%	E: u	F: -16%[46.1 µM]	G: -11%	H: x

O=C(Nc1ccc(S(=O)(=O)N2CCCC2)cc1)C1CCCN1C(=O)c1cccs1 (stereo not given)
  A: -4%	B: x	C: 2%	D: x	E: -6%	F: 0%[46.1 µM]	G: 6%	H: x

Cc1noc(C)c1COC(=O)c1cc2ccccc2cc1O
  A: 18%	B: -8%	C: -10%	D: -29%	E: x	F: 4%	G: -11%	H: -4.2%

O=C(O)c1ccc(CN2C(=O)c3ccc(Oc4ccc([N+](=O)[O-])cc4)cc3C2=O)cc1
  A: x	B: x	C: 0%	D: 19%	E: -13%	F: x	G: 7%	H: x

COc1cc2c(cc1O)CCN(C(=O)c1ccco1)C2C (stereo not given)
  A: -3%	B: -5%	C: -1%	D: -4%	E: 3%	F: -20%	G: 26%	H: 9.0%

COc1cc(C(=O)NCC(c2ccco2)N2CCOCC2)cc(OC)c1OC (stereo not given)
  A: 12%	B: x	C: 1%	D: x	E: -8%	F: -4%	G: -13%	H: x

CC(=O)Nc1ccc2c(c1)nc1n2CCN(C2CCCCC2)C1
  A: -2%	B: x	C: 0%	D: -2%	E: 47%[activator]	F: u	G: 8%	H: x

Cc1c(S(=O)(=O)Nc2cccc3ccccc23)c(=O)n(C)c(=O)n1C
  A: 4%	B: x	C: 0%	D: x	E: -3%	F: 2%	G: 4%	H: x

O=C1c2ccccc2C(=O)C12OC2c1ccc(Cl)cc1Cl (stereo not given)
  A: 12%	B: 0%	C: -18%	D: -28%	E: 28µM*	F: u	G: 9%	H: 0.3%

CCc1ccccc1NC(=S)N(CCN(C)C)C(C)c1ccco1 (stereo not given)
  A: -9%[46.1 µM]	B: x	C: -4%	D: x	E: 1%	F: u	G: -16%	H: x

CCCn1cc([C@@H]2C[C@H]3CN(Cc4cccc(Cl)c4)C(=O)[C@]34CCCN24)c(C)n1
  A: x	B: x	C: 0%	D: -3%	E: -11%	F: x	G: -14%	H: x

COc1ccc(N2CCN(C(=O)c3ccc4[nH]c(C)c(C)c4c3)CC2)cc1
  A: x	B: x	C: -16%	D: -92%	E: 20%	F: x	G: -2%	H: x

Cc1occc1C(=O)NC(C)C1CCCO1 (stereo not given)
  A: 7%	B: 5%	C: -3%	D: -5%	E: -12%	F: -1%	G: 13%	H: 0.8%

Cc1cccc(N2CCN(C(=O)Cn3sc4nc(C)cc(C)c4c3=O)CC2C)c1 (stereo not given)
  A: x	B: -7%	C: x	D: -189%	E: -28%	F: x	G: u	H: -6.3%

COC(=O)CSc1[nH]c(=O)cc(C)c1C#N
  A: 1%	B: 8%	C: 2%	D: -3%	E: -9%	F: 3%	G: 1%	H: 3.6%

# Bioassay records deposited in PubChem by National Center for Advancing Translational Sciences (NCATS).
